Screening data: PubChem BioAssay, several laboratories
T cruzi repl = T. cruzi replication inhibition; T. cruzi beta-gal in NIH3T3, luminescence, 90 h; inhibition, % (concentration not given with the values); 1.4% of 300,000 active; AID 1885;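 active = mean inhibition across valid replicates above about 55%, limit read from the data; inconclusive = mean below that limit but half or more replicates reach it; inactive = mean below it, under half of replicates reach it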;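 also: signal also drops with host cell toxicity which is not excluded here; 0% = plate median of DMSO wells and 100% = zero luminescence signal; higher percent means less beta-gal luminescence so fewer parasites; stock transfer was 50 nL into about 50 µL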
LANA-H2A inh = blocks KSHV LANA binding to histone H2A/H2B; Q9QR71; inhibition, % (test concentration not listed); cell-free LANA-H2A/H2B peptide, fluorescence polarization; 0.6% of 320,000 active; AID 2629; in the data active = inhibition mostly above about 10%, no sharp cut-off; inactive = mostly below about 6.7%;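 also: stock transfer was 7.5 nL into about 10 µL; 0% = median of vehicle wells and 100% = median of positive control wells; one replicate is shown; the record names a cut of 25% in any replicate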
Target sequence (Q9QR71 whole entry, looked up): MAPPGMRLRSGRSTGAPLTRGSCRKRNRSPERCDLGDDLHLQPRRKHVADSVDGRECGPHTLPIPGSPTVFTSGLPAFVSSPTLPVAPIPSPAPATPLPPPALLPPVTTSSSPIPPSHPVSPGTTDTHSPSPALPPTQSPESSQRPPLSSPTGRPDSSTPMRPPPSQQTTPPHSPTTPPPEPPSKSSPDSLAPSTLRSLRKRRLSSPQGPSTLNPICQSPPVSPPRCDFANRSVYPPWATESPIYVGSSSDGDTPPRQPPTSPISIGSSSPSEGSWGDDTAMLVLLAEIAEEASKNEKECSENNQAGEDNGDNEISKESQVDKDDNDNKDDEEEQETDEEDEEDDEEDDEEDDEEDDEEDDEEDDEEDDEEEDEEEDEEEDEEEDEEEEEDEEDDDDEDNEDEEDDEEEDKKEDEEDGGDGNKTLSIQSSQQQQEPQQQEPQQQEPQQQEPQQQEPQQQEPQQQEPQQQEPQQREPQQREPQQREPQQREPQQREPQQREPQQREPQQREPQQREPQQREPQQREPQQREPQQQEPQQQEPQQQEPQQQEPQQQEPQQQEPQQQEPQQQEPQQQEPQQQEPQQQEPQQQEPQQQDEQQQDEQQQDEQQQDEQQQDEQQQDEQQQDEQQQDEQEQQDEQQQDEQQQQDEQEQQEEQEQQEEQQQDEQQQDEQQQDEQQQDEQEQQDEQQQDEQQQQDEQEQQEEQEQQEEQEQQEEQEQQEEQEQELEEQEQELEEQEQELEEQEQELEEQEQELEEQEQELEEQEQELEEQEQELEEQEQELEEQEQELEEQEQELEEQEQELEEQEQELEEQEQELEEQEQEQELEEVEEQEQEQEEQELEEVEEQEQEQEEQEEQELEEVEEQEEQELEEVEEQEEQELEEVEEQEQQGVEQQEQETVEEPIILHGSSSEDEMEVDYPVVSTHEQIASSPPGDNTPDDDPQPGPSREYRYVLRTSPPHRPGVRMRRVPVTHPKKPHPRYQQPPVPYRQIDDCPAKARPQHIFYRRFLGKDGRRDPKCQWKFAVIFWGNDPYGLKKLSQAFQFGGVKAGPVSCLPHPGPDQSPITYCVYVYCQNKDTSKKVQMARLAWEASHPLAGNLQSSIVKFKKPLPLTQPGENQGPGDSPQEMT
B2AR ag = activates human beta-2 adrenergic receptor causing internalization; Am2.2-beta2AR cells, FAP receptor internalization, flow cytometry; reference of the scale not given here; response, % (no concentration beside the values); 0.43% of 340,000 active;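 active = response above a set limit, near 3 SD of response in nonfluorescent compounds, cut at about 42% in these data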;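 also: stock transfer was 100 nL into about 11 µL; a reference agonist was the positive control; negative values mostly stem from fluorescent compounds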
RanGTP-Imp inh = disruptors of Ran-importin-beta complex formation – biochemical, FRET, CFP-Ran, YFP-importin-beta, homogeneous, primary screen | cell-free CFP-Ran/YFP-importin-beta FRET ratio | inhibition, % (no concentration beside the values) | 1.1% of 300,000 active | AID 2216;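 active = most replicates above 15%; inconclusive = exactly half above 15%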;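 also: 0% = DMSO wells and 100% = Ran loaded with GDP instead of GTP; wells of about 40 µL received 100 nL stock; the first replicate is given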
UCH37 inh = human UCH37 deubiquitinating enzyme inhibition | Q9Y5K5 | 0.33% of 330,000 active | inhibition, % (no concentration beside the values) | purified proteasome/UCH37, Ub-AMC cleavage fluorescence;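 active = mean of two replicates above 20%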;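 also: 0% = compound-free wells with enzyme and 100% = wells lacking proteasome; stock transfer was 100 nL into about 20 µL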
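Test system – human UCH37 enzyme supplied as purified proteasome complex · Incubation – 30 min preincubation with enzyme, 25 min cleavage at room temperature · Detection – AMC fluorescence from Ub-AMC cleavage, excitation 355 nm, emission 460 nm · Benchmarks – no-proteasome wells (full inhibition) and compound-free wells (no inhibition)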
Bfl-1 A1 inh = inhibitors of the anti-apoptotic protein A1, read as caspase activation. MEF A1-2A-BIM cells, Caspase-Glo 3/7 luminescence, 3 h; percent of clofoctol response, vehicle zero. caspase activation, % (test concentration not listed). 0.066% of 330,000 active. AID 2462;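 active = over half of replicate activation scores above 10%, or exactly half above 10 with the replicate mean above 10; inconclusive = replicate mean below 10 yet half the replicates above 10; inactive = over half of replicates below 10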;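 also: wells of about 30 µL received 50 nL stock; many hits fall short of the cut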
Beta apoptosis = beta cell apoptosis inhibition | INS-1E cytokine-induced death, ATP luminescence, 48 h; percent of positive-control rescue, neutral wells zero | protection from apoptosis, % (test concentration not listed) | 0.8% of 300,000 active;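 active = all replicates at 75% or more, or half of them and the mean; inconclusive = half reach 75% but not the mean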;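 also: 0% = cytokine-treated negative control wells and 100% = positive control rescue; higher means more ATP so stronger rescue from cytokine killing; wells of about 40 µL received 100 nL stock; the first replicate is given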
Calb FLC = C. albicans growth modulation with fluconazole. C. albicans CaCi-2 (fluconazole-resistant clinical isolate) + fluconazole, Alamar Blue growth, 48 h. growth inhibition, % (no concentration beside the values). 0.57% of 300,000 active. AID 1979;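 active = most replicates above 75%; inconclusive = exactly half above 75%; inactive = most below 75%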;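 also: all wells also contain fluconazole at 8 µg/ml as a sub-toxic cotreatment; 0% = median of DMSO wells and 100% = median of geldanamycin control wells; wells of about 8 µL received 7.5 nL stock; the first replicate is given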
An asterisk follows results filed as active; ? = inconclusive; · = no result given.

Screens in order – B2AR ag	Bfl-1 A1 inh	RanGTP-Imp inh	Beta apoptosis	UCH37 inh	T cruzi repl	LANA-H2A inh	Calb FLC
CC1=C(C(=O)Nc2ccc(F)cc2)C(c2ccc(C)o2)C2=C(CC(C)(C)CC2=O)N1 (stereo not given)
  1	0.8	4.7	-5	-5.9	0	-1.4	-4
Cc1c(C(=O)N2CCCCC2)c(S(=O)(=O)Nc2ccc(F)cc2F)c(C)n1C
  -4	-0.3	2.5	·	4.0	-10	-1.6	-4
CCOC(=O)c1c(C(=O)OCC)c(C)n(CCc2ccc(OC)c(OC)c2)c1C
  1	-0.7	10	3	-4.1	17	4.7	5
CCC(=O)c1ccc(OCC(=O)OCC(=O)NCc2cccs2)cc1
  1	-1.1	0.4	-1	0.6	1	0.1	1
CCNc1nc(NCC)n2c(SCC(=O)Nc3ccccc3F)nnc2n1
  -2	0.9	0.5	0	2.9	-2	·	1
Cc1cc(C)n2nc(SCc3ccc(C#N)cc3)nc2n1
  -12	-0.4	-2.8	-3	0.2	-12	-0.1	4
CS(=O)(=O)N1CCCC(C(=O)Nc2ccc(F)cc2F)C1 (stereo not given)
  4	0.1	-0.2	·	4.4	-9	-2.3	5
CCCN(C(=O)CSc1nnnn1C)C1CCS(=O)(=O)C1 (stereo not given)
  7	0.1	1.3	1	0.4	1	-0.7	21
COc1ccccc1Cn1c(=S)[nH]c2cc(C(=O)N3CCC(C(N)=O)CC3)ccc2c1=O
  1	0.8	?	-5	·	5	-3.1	-15
CCOC(=O)c1csc(NC(=O)CN2CCOCC2)n1
  2	-0.5	3.8	-3	1.0	-5	6.8	-2
Cc1ccc(NC(=O)c2ccnc(C(C)(C)C)c2)cc1
  1	-0.2	2.1	-1	3.7	-1	6.1	0
O=C(NC(=S)NCc1ccccc1)C1CC1
  6	1.0	-4.1	5	·	-11	16*	-2
O=C(Nc1ccccc1N1CCOCC1)c1ccc(OCc2cscn2)cc1
  -4	0.5	2.6	-3	0.6	-24	2.2	1
CC1CCN(S(=O)(=O)c2cnc[nH]2)CC1
  4	0.2	1.9	-7	1.9	-10	-15	-2
O=C(c1cccc(C(F)(F)F)c1)C1CCCN(Cc2cccc(OCCO)c2)C1 (stereo not given)
  2	0.8	6.4	0	1.9	10	2.7	-38
O=C(O)C1C2C=CC(C3CC23)C1C(=O)O (stereo not given)
  2	0.0	3.9	·	5.4	-10	2.7	-9
Fc1ccc(N2CCN(C3=Nc4cccc5cccc3c45)CC2)cc1
  -13	-0.5	-3.2	10	4.4	64*	-1.3	-2
O=C1/C(=C/c2cccc3ccccc23)CCCc2ccccc21
  12	-0.4	-2.4	·	3.2	16	-2.6	7
CCCC(=O)Nc1cc(C(F)(F)F)ccc1N1CCOCC1
  -7	0.6	4.1	1	5.2	0	0.8	4
CCCCOC(=O)Nc1cc(C)c(Cl)cc1OC
  15	0.6	-7.4	-5	0.7	8	-26	-1
CC(C)c1nnc(NC(=O)CCS(=O)(=O)Cc2ccccc2)s1
  7	0.0	1.6	-17	2.3	-14	0.7	14
CCCCNC(=S)N/N=C/c1cccc(OCC)c1O
  6	-0.2	?	30	·	-4	-0.5	-3
c1ccc(Nc2nc3ccccc3o2)cc1
  -1	-6.5	-0.4	-1	2.4	-12	4.6	-2
CC1CCc2c(sc(NC(=O)c3ccc(N4C(=O)CCC4=O)cc3)c2C(N)=O)C1 (stereo not given)
  13	0.1	·	-2	-136	·	1.3	·
CCCC(=O)N(CCN1CCOCC1)c1nc2c(C)cccc2s1
  -1	-0.4	-1.0	-5	1.9	0	0.8	-6
Cc1nn(CC(=O)N/N=C/c2ccc3c(c2)OCO3)c(C)c1Br
  -2	0.1	-2.1	0	·	-16	-4.6	-12
O=C1C=C(c2cccc(Br)c2)C[C@@H](c2ccc3c(c2)OCO3)C1
  8	-0.8	·	-7	0.9	·	5.6	·
O=C(Nc1ccc(N2CCCCC2)cc1)c1cncc(Br)c1
  15	-7.2	-1.7	-8	5.0	-8	-2.6	3
CCOc1ccc(CN(C(=O)c2oc3cc(C)ccc3c2C)C2CCS(=O)(=O)C2)cc1 (stereo not given)
  -15	-0.2	-1.4	-6	4.1	23	6.3	13
COc1ccccc1C(=O)Oc1cc(N)n(S(=O)(=O)c2ccccc2)n1
  6	-0.3	-2.0	-7	2.0	-2	1.0	2
CN1CCN(c2nc3c(c(=O)[nH]c(=O)n3C)n2Cc2ccccc2)CC1
  -3	-0.3	-3.2	-7	1.4	6	4.3	-6
CCOC(=O)/C(N=O)=C(\O)C1CCN(C(=O)OCC)CC1
  8	-0.3	2.9	-3	3.8	-4	0.9	1
COc1ccccc1C1=NC(c2ccc(F)cc2)N=C1C (stereo not given)
  5	-0.6	3.1	-1	0.9	-27	0.2	-11
Cc1csc(NC(=O)c2cc3c(C)nn(Cc4ccccc4Cl)c3s2)n1
  12	1.3	-1.6	22	-38	46	-5.2	-7
C=CCn1c(NCc2c[nH]c3ccccc23)nc2ccccc21
  1	-1.0	2.4	3	3.3	8	-2.8	31
CCCCN(CCCC)Cc1ccc(C(=O)NNC(=O)Nc2ccc(Cl)cc2)o1
  -1	-0.3	2.1	0	3.9	9	-0.8	0
O=C(Nc1nnc(C2CC2)s1)C1CCCCN1S(=O)(=O)c1ccccc1 (stereo not given)
  1	0.0	6.7	-4	-1.1	-4	·	0
C#CCOCCOCCOCCNc1nc(N2CCN(C(=O)C([C@@H](C)CC)n3cc(C(N)COC(=O)C(F)(F)F)nn3)CC2)nc(N2CCN(C(=O)[C@H](CCCCN)n3cc(C(N)[C@H](C)CC)nn3)CC2)n1 (stereo not given in full)
  ·	-0.1	0.1	-4	-0.9	-24	-8.4	7
Cc1nc2ccccn2c1/C(O)=C1\C(=O)C(=O)N(CCN(C)C)C1c1cccnc1 (stereo not given)
  -2	0.8	?	-19	6.3	-1	-4.6	3
Cc1ncc(S(=O)(=O)c2ccccc2)c(-c2ccccc2)n1
  -3	1.3	6.8	2	1.6	-27	-3.7	-4
Cc1ccc(NC(=O)c2cc(S(=O)(=O)N3CCCCC3)ccc2N2CCOCC2)cc1F
  10	-0.3	3.6	0	1.0	24	-2.9	-20
CCOc1ccc2nc(N(CCN(C)C)C(=O)/C=C/c3cccs3)sc2c1
  10	1.0	?	-2	-0.6	22	-1.7	2
CCN1C(=O)c2cccc3c(NC(=O)c4ccc(S(=O)(=O)N(C)C)cc4)ccc1c23
  -8	0.8	-4.7	-2	7.9	13	4.4	45
COc1ccc(NC(=O)NC(c2ccccc2)c2ccccc2)c(OC)c1
  9	0.0	0.5	-3	1.6	-9	-0.9	-4
Nc1nonc1-n1nnc(C(=O)N/N=C/c2ccc(OCc3ccccc3F)cc2)c1CN1CCCCC1
  0	-4.3	2.4	12	·	2	-0.4	4
COc1ccccc1-c1nnc(SCC(=O)Nc2ccc(N3CCOCC3)cc2)n1C
  -4	0.1	-1.2	·	4.6	-4	1.3	-13
COc1cc(S(=O)(=O)N2CCOCC2)ccc1N
  7	-0.3	-1.8	-1	-1.2	-4	2.1	-10
Cc1ccc2c(c1)c1c3n2CCN(C(=O)CCl)C3CCC1 (stereo not given)
  4	-0.3	-7.3	-2	·	-4	-2.1	-14
COc1ccc(NC(=O)CC23CC4CC(CC(Br)(C4)C2)C3)c(OC)c1
  -8	-1.2	-3.0	·	2.4	-13	9.7	0
O=C(CC1Nc2cccc3cccc(c23)NC1=O)Nc1ccc(F)cc1 (stereo not given)
  -7	0.3	-2.4	-12	-3.1	1	-1.8	-5
Clc1ccc(-c2nnsc2SCc2ccccc2)cc1
  -1	·	-2.7	-2	3.3	3	8.1	2
CC(=O)Oc1cc(OC(C)=O)c2c(=O)c(-c3ccc4c(c3)OCCCO4)c(C)oc2c1
  -1	0.6	-1.4	1	-136	9	-3.0	0
CSc1ncccc1C(=O)Nc1nc2ccc(S(C)(=O)=O)cc2s1
  -1	-3.8	2.0	6	5.4	-10	-1.5	-15
CC(=O)c1ccc(-n2ccnc2)cc1
  7	-0.7	-1.7	-5	1.6	-4	0.3	-3
C/C(=N\NC(=O)c1nnn(-c2nonc2N)c1CN(C)c1ccccc1)c1ccccc1O
  1	-0.9	2.7	90*	·	64*	-4.8	-6
CC(C)(C)OC(=O)N1CCC(c2c(C(=O)N3CCN(C4CCCCC4)CC3)cnn2-c2ccccc2)CC1
  -7	1.0	-0.8	-7	2.2	-4	3.7	3
CCOC(=O)c1[nH]c(C)c(C(=O)NCc2ccc(Cl)cc2)c1C
  4	0.1	0.1	-12	4.1	-23	-3.5	-1
Cc1cccc(CS(=O)(=O)c2ncc(Cl)c(C(=O)Nc3nnc(C(C)C)s3)n2)c1
  20	8.1*	1.5	-20	·	-19	-1.7	-1
O=C(Cn1ncc2c1-c1ccccc1OC2)Nc1ccc(S(=O)(=O)N2CCCCC2)cc1
  -4	-0.2	·	12	1.0	·	3.3	·
O=C(Cn1cnc2c(cnn2-c2ccc(F)cc2)c1=O)NCCc1ccccc1
  -4	0.0	0.9	-5	6.0	-11	5.8	-3

The list continues.
Screens in order – B2AR ag	Bfl-1 A1 inh	RanGTP-Imp inh	Beta apoptosis	UCH37 inh	T cruzi repl	LANA-H2A inh	Calb FLC
Cc1ccnc(NC(=O)c2ccccc2[N+](=O)[O-])c1
  -8	-0.8	5.8	-9	0.2	0	1.1	-1
O=C1CC(c2ccco2)Cc2nc(N3CCN(Cc4ccc5c(c4)OCO5)CC3)ncc21 (stereo not given)
  10	-0.4	·	2	2.2	·	1.4	-18
C=CCn1c(O)c(N=NC(=O)c2cccnc2)c2cc(Br)ccc21
  -9	-1.2	-1.7	11	3.3	-9	-9.1	8
Cc1cc(/C=C2\C(=N)N3N=C(c4ccco4)SC3=NC2=O)c(C)n1Cc1ccccc1
  1	1.4	3.4	-5	·	-5	0.6	-5
Cn1cc(S(=O)(=O)Cc2ccc(F)cc2)c2ccccc21
  -8	0.0	-0.3	-2	2.0	1	0.8	-1
Cc1ccc(C(=O)Nc2cccc(S(=O)(=O)N3CCCCC3)c2)cc1[N+](=O)[O-]
  7	-0.8	·	-5	3.6	·	0.6	·
O=Cc1cn(-c2ccccc2)nc1-c1cc2c(ccc3ccccc32)oc1=O
  6	-1.2	·	3	-72	·	-1.2	·
COc1ccc(CCNC(=O)CSc2nnc3ccc(-c4ccncc4)nn23)cc1
  5	-1.0	-3.8	-5	3.5	-1	-5.1	0
CN1CC(=O)N(C)c2ncn(Cc3ccccc3)c2C1=O
  0	-0.2	2.8	-3	1.8	-11	-9.8	-12
COc1cc(C(=O)NCCc2ccc3c(c2)OCCO3)ccc1OCC(=O)N1CCOCC1
  1	0.2	-1.7	3	0.7	-4	0.3	-2
O=C(COc1ccccc1)Nc1ccc(S(=O)(=O)N2CCOCC2)cc1
  -11	1.1	-3.3	-5	-0.3	1	4.5	-1
O=C(Cc1ccc(F)cc1)N(c1ccccc1)C1C=CS(=O)(=O)C1 (stereo not given)
  -4	-0.5	-0.4	-9	0.4	-4	1.7	-10
Cc1ccc(CN(C(=O)COc2ccc(Br)cc2)C2CCS(=O)(=O)C2)o1 (stereo not given)
  -5	-0.7	1.5	-5	-0.9	43	8.7	-1
COc1ccc(S(=O)(=O)N2CCN(C)CC2)cc1C
  3	-0.1	1.5	-5	3.9	-8	-5.3	3
